From PubChem
RanGTP-Impb inh – disruptors of Ran-importin-beta complex formation – biochemical, FRET, CFP-Ran, YFP-importin-beta, homogeneous, primary screen; cell-free CFP-Ran/YFP-importin-beta FRET ratio; inhibition, % (no concentration beside the values); 1.1% of 300,000 active; AID 2216;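 active means most replicates above 15%; inconclusive means exactly half above 15%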;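 further: 0% = DMSO wells and 100% = Ran loaded with GDP instead of GTP; wells of about 40 µL received 100 nL stock; the first replicate is given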
AF4-AF9 inh – inhibitors of human MLL-AF4/AF9 interaction. inhibition, % at 10 µM. AID 651704. 0.47% of 350,000 active. P42568. AlphaScreen, biotin-AF4 peptide binding to FLAG-AF9;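 active means every replicate reaching a set inhibition limit, whatever the replicate mean, cut at about 25% in these data; inconclusive means mean inhibition reaches that limit but some replicates miss it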;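 further: 0% = plate neutral control median and 100% = total signal loss; the record names both 10 and 1 µM as test concentration; the first replicate is given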
Target sequence (P42568 whole entry, looked up): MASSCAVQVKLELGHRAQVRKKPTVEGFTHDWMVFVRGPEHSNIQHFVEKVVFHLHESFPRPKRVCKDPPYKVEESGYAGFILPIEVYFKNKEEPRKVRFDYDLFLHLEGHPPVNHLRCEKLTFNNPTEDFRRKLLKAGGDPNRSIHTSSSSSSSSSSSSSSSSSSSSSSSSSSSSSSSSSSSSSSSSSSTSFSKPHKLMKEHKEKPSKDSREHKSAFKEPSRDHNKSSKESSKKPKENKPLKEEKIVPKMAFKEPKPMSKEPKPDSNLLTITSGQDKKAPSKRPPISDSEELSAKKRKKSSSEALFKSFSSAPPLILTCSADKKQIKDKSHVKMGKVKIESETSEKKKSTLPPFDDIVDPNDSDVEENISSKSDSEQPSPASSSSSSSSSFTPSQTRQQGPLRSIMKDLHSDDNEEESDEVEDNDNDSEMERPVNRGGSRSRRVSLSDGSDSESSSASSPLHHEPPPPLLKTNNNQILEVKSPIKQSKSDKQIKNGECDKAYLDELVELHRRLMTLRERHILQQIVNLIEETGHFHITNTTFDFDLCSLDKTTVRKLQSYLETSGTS
Beta cell apopt – blocks beta cell apoptosis; INS-1E cytokine-induced death, ATP luminescence, 48 h; percent of positive-control rescue, neutral wells zero; protection from apoptosis, % (concentration not given with the values); 0.8% of 300,000 active; AID 435005;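 active means all replicates at 75% or more, or half of them and the mean; inconclusive means half reach 75% but not the mean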;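 further: 0% = cytokine-treated negative control wells and 100% = positive control rescue; higher means more ATP so stronger rescue from cytokine killing; wells of about 40 µL received 100 nL stock; the first replicate is given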
Vif TR-FRET – HIV-1 Vif–A3G interaction blockers – biochemical, TR-FRET, GST-Vif 1-94, biotin-A3G peptide, dose response retest, primary screen (AID 1117319); 0.57% of 260,000 active; TR-FRET GST-Vif / biotin-A3G peptide binding; higher % means a stronger effect; test concentration not given here; strong numbers were not always called active; inhibition, %; hits with a dose series show IC50 in µM;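 active means above the screen mean plus three standard deviations and confirmed in dose response; inconclusive means results disagree or hit not tested in dose response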;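 further: Vif residues 1-94 fused to GST binding biotinylated APOBEC3G peptide 110-148; 0% = full assay without inhibitor and 100% = GST in place of GST-Vif; retest series ran down from 100 µM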
T cruzi repl – T. cruzi replication inhibition. T. cruzi beta-gal in NIH3T3, luminescence, 90 h. 1.4% of 300,000 active. inhibition, % (test concentration not listed). AID 1885;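 active means mean inhibition across valid replicates above about 55%, limit read from the data; inconclusive means mean below that limit but half or more replicates reach it; inactive means mean below it, under half of replicates reach it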;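 further: signal also drops with host cell toxicity which is not excluded here; 0% = plate median of DMSO wells and 100% = zero luminescence signal; higher percent means less beta-gal luminescence so fewer parasites; stock transfer was 50 nL into about 50 µL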
rRNA inh HTS – inhibitors of bacterial rRNA selective over humanized ribosomes. E. coli WT GFP vs humanized-ribosome RFP mutants, fluorescence, 24 h; active compounds read low; DMSO median 0, no signal -100. 1.6% of 350,000 active. GFP signal change (wild-type ribosome), % (test concentration not listed);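 active means significant combined selectivity score with lowered wild-type GFP, culture density cut under 30%, mutant RFP and density less affected; inactive means any of these conditions unmet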; further: one replicate is shown; some compounds called inactive have numbers as strong as hits
Calb FLC – affects C. albicans growth with fluconazole; AID 1979; growth inhibition, % (test concentration not listed); C. albicans CaCi-2 (fluconazole-resistant clinical isolate) + fluconazole, Alamar Blue growth, 48 h; 0.57% of 300,000 active;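 active means most replicates above 75%; inconclusive means exactly half above 75%; inactive means most below 75%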;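 further: all wells also contain fluconazole at 8 µg/ml as a sub-toxic cotreatment; 0% = median of DMSO wells and 100% = median of geldanamycin control wells; wells of about 8 µL received 7.5 nL stock; the first replicate is given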
A1 inh – inhibitors of the anti-apoptotic protein A1, read as caspase activation | 0.066% of 330,000 active | MEF A1-2A-BIM cells, Caspase-Glo 3/7 luminescence, 3 h; percent of clofoctol response, vehicle zero | AID 2462 | caspase activation, % (concentration not given with the values);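 active means over half of replicate activation scores above 10%, or exactly half above 10 with the replicate mean above 10; inconclusive means replicate mean below 10 yet half the replicates above 10; inactive means over half of replicates below 10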;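 further: wells of about 30 µL received 50 nL stock; many hits fall short of the cut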
rRNA inh HTS OD600 – also measured in rRNA inh HTS; calls as there; OD600 change, %; measured here: OD600 growth;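 optical density of the mix in the first replicate; 0 = DMSO median and -100 = no signal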
rRNA inh HTS RFP – also measured in rRNA inh HTS; calls as there; RFP signal change, %; measured here: RFP humanized mutant strains;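 first replicate; 0 = DMSO median and -100 = no signal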
* = called active by the depositor; ? = inconclusive; . = not tested or not shown; & = joins results of further samples. A portion of the library; rates above refer to the full screens.

SMILES | RanGTP-Impb inh | AF4-AF9 inh | Beta cell apopt | Vif TR-FRET | T cruzi repl | rRNA inh HTS | rRNA inh HTS OD600 | rRNA inh HTS RFP | Calb FLC | A1 inh
N#Cc1ccccc1NC(=O)CSc1nccn1CCc1ccccc1 | -0.1 | . | -8 | 3% | -1 | . | . | . | 0 | 0.0
CC12CCC(=O)N1C(C(=O)Nc1cc(C(F)(F)F)ccc1N1CCOCC1)CS2 (stereo unspecified) | 5.4 | -0.1 | . | -5% | 5 | 1 | -2 | -0.8 | 5 | -0.5
COc1ccccc1NC(=O)CNc1ccc(F)c(Cl)c1 | 4.1 | -1.5 | -3 | 17% | -2 | -30 | -27 | -5.0 | 0 | 1.4
CC(C)CCN1CCN(C2CSCCSC2)CC1CCO (stereo unspecified) | 4.9 | 0.6 | 2 | 10% | 5 | 15 | 10 | -2.5 | -21 | -0.2
O=C(O)c1ccc(-c2sc(Nc3ccccc3)n[n+]2-c2ccc(F)cc2)cc1 | 3.7 | . | -4 | . | -6 | . | . | . | -5 | 1.1
O=C(CNC(=O)c1ccc(S(=O)(=O)N2CCCC2)cc1)N/N=C/c1ccc(Cl)cc1 | 6.7 | -5.1 | -7 | 9% | -6 | 0 | 11 | 9.1 | 14 | 0.2
CCCCCc1ccc(OCCC[n+]2ccccc2)c(CCCCC)c1 | 5.4 | 20 | 113* | 17% | 75* | -54 | -79 | -19 | 67 | -0.1
COCC1CCN(Cc2cn(-c3ccccc3F)nc2-c2cc(C)sc2C)CC1 | -3.1 | -4.7 | 0 | 4% | 8 | 5 | 2 | 0.3 | -15 | 0.2
O=C(CCCNS(=O)(=O)c1cccc2nsnc12)NCc1ccc(Cl)cc1 | 0.9 | . | -5 | ? | -5 | . | . | . | ? | 1.1
COC(=O)c1ccc(/C=C/c2ccc3cccc(OC)c3n2)cc1 | -1.1 | -0.2 | 6 | 15% | 2 | -3 | 4 | 7.6 | -9 | -3.2
Cc1cc(N)n(-c2cc(C)c3ccccc3n2)n1 | -3.6 | 3.5 | 7 | . | 6 | 4 | 7 | 1.2 | 6 | -0.1
O=C1NC2=C(C(=O)c3ccccc32)C(c2ccccc2)N1 (stereo unspecified) | -0.3 | . | -4 | 0% | -10 | . | . | . | 3 | 0.5
Cc1ccc(NC(=O)c2cc3c(s2)CCCC3)cc1 | -2.8 | -12 | 4 | . | -9 | -9 | 3 | -7.0 | -6 | -1.9
C/C(=N\Nc1nc(Cl)c(Cl)cc1Cl)c1ccc(S(=O)(=O)NCc2ccco2)cc1 | 0.1 | -2.0 | 6 | -8% | 46 | -19 | -21 | 2.6 | 3 | -0.6
CCN1C(=O)[C@H]2[C@@H](c3ccc(-c4ccc(OC)cc4)cc3)N[C@@](Cc3ccccc3)(C(=O)OC)[C@H]2C1=O | ? | -2.0 | 1 | . | -4 | 10 | 4 | 8.5 | 3 | -0.8
O=C(Nc1ccc(Cl)cc1)Nc1cccnc1 | -3.2 | -29 | 9 | -3% | 7 | -20 | -11 | -2.0 | -1 | -2.3
O=C(CSc1nc2ccccc2[nH]1)c1c[nH]c2ccccc12 | -7.8 | -1.3 | -4 | 26% | -14 | -6 | -2 | -1.1 | -7 | 0.2
COc1ccc(OCCC(=O)OCC(=O)NC(=O)NC2CCCCC2)cc1 | -1.2 | -0.8 | -4 | -3% | -18 | 6 | 8 | -1.6 | -1 | 0.2
CCN(CC)C(=O)C1CCN(Cc2cccc(OCc3ccccc3)c2)CC1 | -0.1 | . | -2 | 18% | 16 | . | . | . | -2 | -0.5
CC(C)Cc1nnc(NC(=O)c2ccc(N3CCCC3=O)cc2)s1 | 1.1 | -0.3 | -4 | . | -3 | 5 | 14 | -2.2 | . | 0.8
O=C(c1ccc(CS(=O)c2cccc(Cl)c2)o1)N1CCN(c2ccccn2)CC1 (stereo unspecified) | 5.1 | 0.9 | . | . | 17 | -24 | -36 | -9.1 | -1 | -0.1
Cc1ccc(C)c(S(=O)(=O)N2CCCOC2CNC(=O)C(=O)NC2CCCC2)c1 (stereo unspecified) | 4.8 | -0.3 | 0 | -1% | 3 | 5 | 7 | 2.0 | 12 | 2.5
COc1ccccc1C/C(N)=N/OC(=O)COc1cc(C)cc(C)c1C | -1.1 | -2.8 | 1 | -9% | 21 | . | . | . | -1 | 0.5
O=C(CN1C(=O)COc2ccccc21)NCc1ccc(C(=O)O)cc1 | -2.7 | . | -6 | 3% | 4 | . | . | . | 15 | -0.6
C=CCNc1ncnc2c1cnn2-c1ccc(OC)cc1 | -4.1 | . | -2 | -2% | 10 | . | . | . | -1 | -3.7
Continuation.
SMILES | RanGTP-Impb inh | AF4-AF9 inh | Beta cell apopt | Vif TR-FRET | T cruzi repl | rRNA inh HTS | rRNA inh HTS OD600 | rRNA inh HTS RFP | Calb FLC | A1 inh
CCc1ccc(C(N)=S)cc1 | -1.2 | -4.1 | -7 | . | -10 | 9 | 12 | 7.0 | -11 | 0.2
CC(C)C[C@@H](CN1C(N)=NC[C@@H]1C)NC(=O)CC12CC3CC(CC(C3)C1)C2 | . | 0.6 | 2 | . | . | 11 | 6 | 5.4 | . | 0.1
NC(=O)C1(N2CCCCC2)CCN(C2CC(=O)N(Cc3cccs3)C2=O)CC1 (stereo unspecified) | 1.5 | . | 1 | 7% | 18 | . | . | . | 5 | 1.8
O=C(NCc1ccncc1)C(=O)N/N=C/c1ccc(OCc2ccccc2)cc1 | -1.4 | 3.6 | -2 | -1% | 3 | 8 | 5 | -1.6 | -23 | 0.5
O=C(CN1C(=O)C(=O)N(C2CCCC2)C1=O)NCCc1ccc(F)cc1 | . | -0.7 | 2 | 3% | . | 1 | 4 | 1.7 | . | -0.7
COc1ccc(CCNC(=O)CSCc2ccc(Br)cc2)cc1OC | -3.9 | -1.6 | 12 | -4% | -8 | -8 | -5 | 3.5 | 8 | 0.6
CCCN1C(=O)c2[nH]nc(-c3cc(Cl)c(C)cc3O)c2C1c1ccc(O)c(OC)c1 (stereo unspecified) | 0.4 | 0.3 | 21 | 10% | 12 | -4 | -1 | 1.7 | -5 | -1.0
OCCNC(=S)Nc1cc(Cl)cc(Cl)c1 | -5.6 | -3.2 | -4 | 11% | -1 | -22* | -15* | -1.4* | 9 | -0.5
COc1ccc(CC(=O)Nc2cccc3c2CCCC3)cc1 | -0.5 | 0.5 | -1 | . | -5 | 4 | 12 | 0.1 | -4 | 0.9
CC(C)(C)C(=O)CCN1C(=O)C2(OCCO2)c2ccccc21 | 1.4 | . | -4 | -3% | 0 | . | . | . | -7 | 0.3
O=C(N/N=C/c1cc([N+](=O)[O-])ccc1O)C1CCCCC1 | -0.8 | 15 | 34 | 3% | -2 | 12 | 7 | 1.1 | 9 | -0.7
c1ccc(OCC2CCNCC2)nc1 | 4.3 | -2.0 | . | . | 1 | -3 | 8 | -3.9 | -7 | 0.4
COc1ccc(Cn2c(=O)oc3ccc(C)cc32)cc1 | -1.1 | 1.2 | -3 | -10% | -2 | -28 | -35 | -9.9 | -1 | 0.1
Cc1nnc(CN(C)C(=O)CC2C(=O)NCCN2Cc2ccccc2C)o1 (stereo unspecified) | ? | -1.0 | -6 | . | -10 | 7 | 2 | 1.4 | 4 | 0.0
COC(=O)c1c(N2C(=O)CCC2=O)sc2c1CCCC2 | -0.9 | 2.6 | -6 | 6% | -9 | 1 | -5 | -2.0 | 5 | -1.2
CCOC(=O)c1cnn(-c2ccccc2)c1NC(=O)c1cccs1 | -1.7 | 3.7 | 0 | 5% | 10 | -7 | -2 | 2.0 | -6 | 0.3
C[C@H](NC(=O)NCc1cccs1)C(=O)O | -0.1 | . | -6 | 50% | -7 | . | . | . | 6 | -1.4
CCCCNc1cc(C)nc(N2CCOCC2)n1 | ? | . | . | 1% | 0 | . | . | . | 7 | -0.2
O=C(NNC(=O)c1ccc(Cl)nc1)c1ccc(Br)cc1 | . | -4.3 | -1 | -6% | . | 12 | 16 | 3.6 | . | 0.6
Cc1ccc(OCC(=O)N(Cc2nnc(-c3ccccc3Cl)o2)C2CC2)cc1C | . | 2.3 | 0 | -5% | . | -17 | -39 | -1.3 | . | 1.1
O=C(NCc1ccc(S(=O)(=O)Nc2ccccc2Cl)s1)c1ccccc1 | -4.6 | -4.4 | -3 | 2% | -5 | -32* | -5.3* | -1.2* | 2 | 0.4
CN1CCC2(CC1)C1CN(C)CC=C1C(C#N)=C(N)C2(C#N)C#N (stereo unspecified) | 43* | . | -5&1 | 20%&0% | 5&-3 | . | . | . | -6&-2 | 1.5&0.4
CCCC[C@@H]1CN=C(N)N1CCc1cc(C(F)(F)F)cc(C(F)(F)F)c1 | 4.9 | 2.6 | 41 | -7% | 40 | -52 | -81 | -23 | -3 | 0.6
COc1ccc(NC(=O)c2cc(-c3cc(OC)c(OC)c(OC)c3)nc3ccccc23)cc1OC | 2.1 | 6.8 | 21 | 1% | -16 | -10 | -13 | 6.0 | 14 | 1.8
O=C(NC1CCN(Cc2ccccc2)CC1)c1c(F)cccc1F | -2.6 | . | -2 | -2% | -13 | . | . | . | -8 | -0.6
(next part)
SMILES | RanGTP-Impb inh | AF4-AF9 inh | Beta cell apopt | Vif TR-FRET | T cruzi repl | rRNA inh HTS | rRNA inh HTS OD600 | rRNA inh HTS RFP | Calb FLC | A1 inh
O=C1c2ccccc2/C(=C\c2ccc(Br)s2)N1c1ccccc1 | . | 20 | 7 | . | . | -28 | -50 | -8.3 | . | 0.2
C/C(O)=C(\C#N)c1nc2ccccc2[nH]1 | 3.1 | . | -5 | 4% | -7 | . | . | . | 0 | 0.7
O=C(CSc1nnc2c3ccccc3c3ccccc3c2n1)Nc1ccccc1F | 2.2 | . | -5 | 25% | -6 | . | . | . | -4 | 0.4
COc1ccc(N(C)S(=O)(=O)c2cccc(C(=O)NCc3ccc4c(c3)OCO4)c2)cc1 | 1.7 | -2.5 | 1 | 0% | 12 | -27 | -24 | -3.8 | -48 | 0.7
N#CCc1c(C#N)c(N)nc(N2CCN(S(=O)(=O)c3ccccc3)CC2)c1C#N | 1.2 | . | -3 | 5% | 7 | . | . | . | 1 | 0.4
CCOC(=O)CNC(=O)c1sc2nc(C)cc(C)c2c1N | ? | . | 0 | 13% | 8 | . | . | . | 1 | 0.0
CCCCN(C)C(=O)C1CCN(c2ccc(S(=O)(=O)N3CCOCC3)cc2[N+](=O)[O-])CC1 | 0.3 | -27 | 8 | -5% | 41 | -4 | 1 | 1.3 | 2 | 1.2
C#CCOCCOCCOCCNc1nc(N2CCN(C(=O)[C@H]([C@@H](C)CC)n3cc(CCCN=C(N)N)nn3)CC2)nc(N2CCN(C(=O)[C@H](CCCCN)n3cc(CCC(=O)O)nn3)CC2)n1 | 0.3 | 8.3 | 0 | -3% | -10 | 3 | 14 | 15 | -3 | 0.6
CC(=O)N1CCN(c2ccccc2NC(=S)NC(=O)c2cc3ccccc3o2)CC1 | -1.0 | -8.1 | 1 | . | 10 | -4 | 1 | -1.5 | -35 | 0.0
O=C(O)c1ccc(NC(CSCc2ccc(F)cc2)C(=O)O)c([N+](=O)[O-])c1 (stereo unspecified) | 5.6 | . | 6 | 5% | -1 | . | . | . | ? | -0.6
Fc1ccc(CNCc2ccc(Br)cc2)cc1 | 2.2 | . | -4 | -1% | -8 | . | . | . | 5 | 0.3
